Assay outcomes: PubChem, Broad Institute
rRNA inh HTS – inhibits bacterial ribosomal RNA function over humanized ribosomes; E. coli WT GFP vs humanized-ribosome RFP mutants, fluorescence, 24 h; stronger effect = lower value; DMSO median 0, no signal -100; GFP signal change (wild-type ribosome), % (concentration not given with the values); actives 1.6% (n = 350,000);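 active means significant combined selectivity score with lowered wild-type GFP, culture density cut under 30%, mutant RFP and density less affected; inactive means any of these conditions unmet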; further: one replicate is shown; some compounds called inactive have numbers as strong as hits
FGF22 binding – binders of recombinant human FGF22 by thermal shift. Q9HCT0. SYPRO orange fluorescence; percent of sucrose octasulfate shift, DMSO zero. calls only at 9.99 µM. actives 1.5% (n = 340,000);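 active means melting point raised past a set limit in the mean and every replicate; three in four hits are not shown here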
Target sequence (Q9HCT0 whole entry, looked up): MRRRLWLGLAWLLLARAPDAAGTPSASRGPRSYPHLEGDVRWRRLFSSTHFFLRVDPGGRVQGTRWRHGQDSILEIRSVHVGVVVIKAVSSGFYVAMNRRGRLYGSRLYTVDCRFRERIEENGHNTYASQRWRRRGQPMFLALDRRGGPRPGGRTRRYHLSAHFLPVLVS
rRNA inh HTS OD600 – second read-out of rRNA inh HTS, no call of its own (marks repeat the call); OD600 change, %; measured here: OD600 growth;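 optical density of the mix in the first replicate; 0 = DMSO median and -100 = no signal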
rRNA inh HTS RFP – also measured in rRNA inh HTS; calls as there; RFP signal change, %; measured here: RFP humanized mutant strains;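 first replicate; 0 = DMSO median and -100 = no signal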
Active calls of the source: *; & = joins results of further samples.

For CCCNC(=O)N1CC2(CN(C(=O)Nc3cccc(F)c3)C2)c2c(n(C)c3cc(OC)ccc23)[C@H]1CO the results were rRNA inh HTS -3, FGF22 binding inactive, rRNA inh HTS OD600 -9 and rRNA inh HTS RFP 0.4.
For CC(C)NC(=O)N(C)C[C@@H]1Oc2c(NC(=O)Nc3ccc(C(F)(F)F)cc3)cccc2C(=O)N([C@@H](C)CO)C[C@H]1C the results were rRNA inh HTS 1, FGF22 binding inactive, rRNA inh HTS OD600 -3 and rRNA inh HTS RFP 1.1.
Screening CN1[C@@H]2Cn3c(ccc(-c4ccncc4)c3=O)[C@H]1[C@@H](C(=O)Nc1nccs1)[C@@H]2CO returned rRNA inh HTS -1, FGF22 binding inactive, rRNA inh HTS OD600 7 and rRNA inh HTS RFP -0.4.
Screening COc1ccc(CN(C)C[C@@H]2Oc3ccc(NS(=O)(=O)c4ccc(OC)cc4)cc3C(=O)N([C@@H](C)CO)C[C@@H]2C)cc1 returned rRNA inh HTS 6, FGF22 binding inactive, rRNA inh HTS OD600 5 and rRNA inh HTS RFP 0.6.
For CS(=O)(=O)N1CC2(C1)[C@H](c1ccccc1)[C@@H](CO)N2CC1CCCC1 the results were rRNA inh HTS 0, FGF22 binding inactive, rRNA inh HTS OD600 5 and rRNA inh HTS RFP -2.2.
Screening C[C@H](CO)N1C[C@H](C)[C@H](CN(C)Cc2ccc(C(F)(F)F)cc2)Oc2c(NC(=O)c3ccc(-c4nccs4)cc3)cccc2C1=O returned rRNA inh HTS -6, FGF22 binding inactive, rRNA inh HTS OD600 -32 and rRNA inh HTS RFP -0.7.
`C[C@@H]1CN([C@@H](C)CO)C(=O)c2cc(NC(=O)NC3CCCCC3)ccc2O[C@@H](C)CCCCO[C@H]1CN(C)C(=O)Nc1ccc2c(c1)OCO2` gave rRNA inh HTS 1, FGF22 binding inactive, rRNA inh HTS OD600 1 and rRNA inh HTS RFP -2.0.
For CNC[C@@H]1Oc2cc(C#CC3CCCC3)ccc2S(=O)(=O)N([C@@H](C)CO)C[C@@H]1C the results were rRNA inh HTS 3, FGF22 binding inactive, rRNA inh HTS OD600 10 and rRNA inh HTS RFP 6.1.
`Cc1noc(C)c1NC(=O)NCC[C@@H]1CC[C@@H](NC(=O)c2ccccc2)[C@@H](CO)O1` gave rRNA inh HTS -1, FGF22 binding inactive, rRNA inh HTS OD600 -1 and rRNA inh HTS RFP -2.3.
Screening Cc1noc(C)c1S(=O)(=O)Nc1ccc2c(c1)C(=O)N([C@@H](C)CO)C[C@H](C)[C@H](CN(C)S(=O)(=O)c1ccccc1)O2 returned rRNA inh HTS -4, FGF22 binding inactive, rRNA inh HTS OD600 -12 and rRNA inh HTS RFP -0.1.
For CCCc1cn(CC[C@@H]2CC[C@H](NC(=O)CCN3CCCCC3)[C@@H](CO)O2)nn1 the results were rRNA inh HTS 2, FGF22 binding inactive, rRNA inh HTS OD600 -1 and rRNA inh HTS RFP -1.9.
COCC(=O)N1[C@H](C#N)[C@@H](c2ccc(-c3cccnc3)cc2)[C@@H]1CO was read as rRNA inh HTS 3, FGF22 binding inactive, rRNA inh HTS OD600 12 and rRNA inh HTS RFP -2.5.
For C[C@@H]1CN([C@H](C)CO)C(=O)c2cccc(NS(=O)(=O)c3ccc(Cl)cc3)c2O[C@@H]1CN(C)Cc1ccncc1 the results were rRNA inh HTS 1, FGF22 binding inactive, rRNA inh HTS OD600 3 and rRNA inh HTS RFP 0.1.
CC(C)NC(=O)Nc1ccc2c(c1)C(=O)N([C@H](C)CO)C[C@@H](C)[C@@H](CN(C)S(=O)(=O)c1ccccc1)O2 was read as rRNA inh HTS -1, FGF22 binding inactive, rRNA inh HTS OD600 -3 and rRNA inh HTS RFP -1.4.
For Cc1cc2cc3c(=O)[nH]c(=O)[nH]c3nc2cc1C the results were rRNA inh HTS 9, FGF22 binding inactive, rRNA inh HTS OD600 8 and rRNA inh HTS RFP 4.4.
Screening COc1ccc(-c2ccc([C@H]3[C@@H](CO)N4CCCCN(C(=O)NC(C)C)C[C@H]34)cc2)cc1 returned rRNA inh HTS 0, FGF22 binding inactive, rRNA inh HTS OD600 6 and rRNA inh HTS RFP 1.1.
Screening CNC[C@H]1Oc2c(NC(=O)Nc3cccc4ccccc34)cccc2C(=O)N([C@@H](C)CO)C[C@H]1C returned rRNA inh HTS -1, FGF22 binding inactive, rRNA inh HTS OD600 -5 and rRNA inh HTS RFP -2.3.
COc1ccc(-c2ccc([C@H]3[C@@H](C#N)N(C(=O)C4CCC4)[C@H]3CO)cc2)cc1 was read as rRNA inh HTS 0, FGF22 binding inactive, rRNA inh HTS OD600 1 and rRNA inh HTS RFP 0.2.
For C[C@H](CO)N1C[C@H](C)[C@@H](CN(C)C(=O)Nc2ccc(C(F)(F)F)cc2)Oc2ccc(NS(=O)(=O)c3ccccc3)cc2CC1=O the results were rRNA inh HTS -1, FGF22 binding inactive, rRNA inh HTS OD600 -5 and rRNA inh HTS RFP 3.0.
CCC(=O)NC[C@H]1[C@H](c2ccccc2)[C@H](CO)N1C(=O)C1CC1 was read as rRNA inh HTS 3, FGF22 binding inactive, rRNA inh HTS OD600 8 and rRNA inh HTS RFP -1.2.
`O=C([C@@H]1[C@@H](CO)[C@@H]2Cn3c(ccc(-c4cccnc4)c3=O)[C@@H]2N1CC1CC1)N1CCCCC1` gave rRNA inh HTS 4, FGF22 binding inactive, rRNA inh HTS OD600 -1 and rRNA inh HTS RFP -0.2.
`C[C@H](CO)N1C[C@H](C)[C@@H](CN(C)Cc2ccncc2)Oc2ccc(NC(=O)CCCN(C)C)cc2CC1=O` gave rRNA inh HTS 1, FGF22 binding inactive, rRNA inh HTS OD600 5 and rRNA inh HTS RFP -0.9.
For C[C@H]1CCCCO[C@@H](CN(C)C(=O)Nc2ccccc2)[C@@H](C)CN([C@@H](C)CO)C(=O)c2cc(NC(=O)c3ccccc3)ccc2O1 the results were rRNA inh HTS 0, FGF22 binding inactive, rRNA inh HTS OD600 8 and rRNA inh HTS RFP -1.2.
Screening Cc1noc(C)c1NC(=O)Nc1cccc2c1O[C@H](CN(C)CC1CC1)[C@H](C)CN([C@H](C)CO)C2=O returned rRNA inh HTS 2, FGF22 binding inactive, rRNA inh HTS OD600 -1 and rRNA inh HTS RFP 2.2.
`O=C(C[C@H]1CC[C@@H](NC(=O)c2cccc(F)c2)[C@@H](CO)O1)NCc1ccccc1` gave rRNA inh HTS 6, FGF22 binding inactive, rRNA inh HTS OD600 -1 and rRNA inh HTS RFP 2.3.
Cc1noc(C)c1S(=O)(=O)Nc1ccc2c(c1)C(=O)N([C@@H](C)CO)C[C@H](C)[C@H](CN(C)S(=O)(=O)c1ccc(F)cc1)OCCCC[C@@H](C)O2 was read as rRNA inh HTS -1, FGF22 binding inactive, rRNA inh HTS OD600 -4 and rRNA inh HTS RFP 1.4.
For COc1ccc(S(=O)(=O)N(C)C[C@H]2Oc3ccc(NC(=O)CCN4CCOCC4)cc3C(=O)N([C@H](C)CO)C[C@H]2C)cc1 the results were rRNA inh HTS 2, FGF22 binding inactive, rRNA inh HTS OD600 4 and rRNA inh HTS RFP -0.5.
CC(C)NC(=O)N1C[C@H]2[C@@H](c3ccccc31)[C@H](CO)N2C(=O)c1cccnc1 was read as rRNA inh HTS 6, FGF22 binding active, rRNA inh HTS OD600 14 and rRNA inh HTS RFP -6.1.
Screening COCC(=O)N1[C@H](CO)[C@H](c2ccccc2)[C@@H]1C#N returned rRNA inh HTS 4, FGF22 binding inactive, rRNA inh HTS OD600 19 and rRNA inh HTS RFP 0.0.
O=C(C[C@H]1C=C[C@H](NC(=O)CCN2CCCCC2)[C@H](CO)O1)Nc1ccc(-c2ccccc2)cc1 was read as rRNA inh HTS 2, FGF22 binding inactive, rRNA inh HTS OD600 -2 and rRNA inh HTS RFP 1.2.
`CCS(=O)(=O)N1CC2(CN(Cc3ccc4c(c3)OCO4)[C@H](CO)c3c2c2ccc(OC)cc2n3C)C1` gave rRNA inh HTS -6, FGF22 binding inactive, rRNA inh HTS OD600 -18 and rRNA inh HTS RFP 0.9.
CO[C@@H]1CN(C)C(=O)c2ccc(NC(=O)c3cc(C)on3)cc2OC[C@H](C)N(C(C)=O)C[C@H]1C was read as rRNA inh HTS -1, FGF22 binding inactive, rRNA inh HTS OD600 3 and rRNA inh HTS RFP -0.3.
For C[C@@H]1CCCCO[C@H](CN(C)C(=O)Nc2ccc(F)cc2)[C@@H](C)CN([C@H](C)CO)C(=O)c2cc(NS(=O)(=O)c3cccs3)ccc2O1 the results were rRNA inh HTS -1, FGF22 binding inactive, rRNA inh HTS OD600 -7 and rRNA inh HTS RFP 1.1.
O=S(=O)(c1ccc(-c2ccccc2)cc1)N1C[C@@H]2N[C@H](C1)C2c1ccc(-c2ccncc2)cc1 (stereo partly drawn) was read as rRNA inh HTS -27, FGF22 binding inactive, rRNA inh HTS OD600 -41 and rRNA inh HTS RFP -9.6.
Screening Cc1noc(C)c1S(=O)(=O)N(C)C[C@H]1Oc2ccc(NS(=O)(=O)c3cccs3)cc2C(=O)N([C@@H](C)CO)C[C@H]1C returned rRNA inh HTS 0, FGF22 binding active, rRNA inh HTS OD600 -1 and rRNA inh HTS RFP -0.3.
C[C@H](NC(=O)C[C@H]1CC[C@@H](NC(=O)Cc2ccccn2)[C@@H](CO)O1)c1ccccc1 was read as rRNA inh HTS 2, FGF22 binding inactive, rRNA inh HTS OD600 1 and rRNA inh HTS RFP -1.0.
C[C@@H]1CCCCO[C@H](CN(C)CC2CC2)[C@@H](C)CN([C@H](C)CO)C(=O)c2cc(NC(=O)Nc3ccccc3)ccc2O1 was read as rRNA inh HTS 0, FGF22 binding inactive, rRNA inh HTS OD600 -3 and rRNA inh HTS RFP -2.4.
C[C@@H]1CN([C@H](C)CO)C(=O)c2cc(-c3ccncc3)cnc2O[C@H]1CN(C)C(=O)C1CCOCC1 was read as rRNA inh HTS 0, FGF22 binding inactive, rRNA inh HTS OD600 2 and rRNA inh HTS RFP -1.9.
`O=C(CN1CCOCC1)NCC[C@@H]1CC[C@H](NC(=O)Nc2ccc(F)cc2)[C@H](CO)O1` gave rRNA inh HTS 4, FGF22 binding inactive, rRNA inh HTS OD600 3 and rRNA inh HTS RFP -0.4.
C[C@@H]1CN([C@@H](C)CO)C(=O)c2cc(NS(=O)(=O)c3cn(C)cn3)ccc2O[C@H]1CN(C)S(=O)(=O)c1cccs1 was read as rRNA inh HTS 3, FGF22 binding inactive, rRNA inh HTS OD600 10 and rRNA inh HTS RFP -0.8.
`CCC(=O)N(C)C[C@@H]1Oc2ncc(C#CCC(C)C)cc2C(=O)N([C@@H](C)CO)C[C@H]1C` gave rRNA inh HTS 2, FGF22 binding inactive, rRNA inh HTS OD600 1 and rRNA inh HTS RFP -2.6.
Screening COc1ccc2c3c(n(C)c2c1)[C@H](CO)N(Cc1ccccn1)CC31CCN(Cc2ccccn2)CC1 returned rRNA inh HTS 5, FGF22 binding inactive, rRNA inh HTS OD600 -1 and rRNA inh HTS RFP 3.1.
For C(=C\c1ccc(C2[C@@H]3CN(Cc4nccs4)C[C@H]2N3)cc1)/c1ccccc1 (stereo partly drawn) the results were rRNA inh HTS -58&-58, FGF22 binding inactive, rRNA inh HTS OD600 -78&-79 and rRNA inh HTS RFP -12&-19.

A section taken from the entries so far:
CO[C@@H]1CN(C)C(=O)c2ccc(NC(=O)c3cc(C)on3)cc2OC[C@H](C)N(C(C)=O)C[C@H]1C was read as rRNA inh HTS -1, FGF22 binding inactive, rRNA inh HTS OD600 3 and rRNA inh HTS RFP -0.3.
For C[C@@H]1CCCCO[C@H](CN(C)C(=O)Nc2ccc(F)cc2)[C@@H](C)CN([C@H](C)CO)C(=O)c2cc(NS(=O)(=O)c3cccs3)ccc2O1 the results were rRNA inh HTS -1, FGF22 binding inactive, rRNA inh HTS OD600 -7 and rRNA inh HTS RFP 1.1.
O=S(=O)(c1ccc(-c2ccccc2)cc1)N1C[C@@H]2N[C@H](C1)C2c1ccc(-c2ccncc2)cc1 (stereo partly drawn) was read as rRNA inh HTS -27, FGF22 binding inactive, rRNA inh HTS OD600 -41 and rRNA inh HTS RFP -9.6.
Screening Cc1noc(C)c1S(=O)(=O)N(C)C[C@H]1Oc2ccc(NS(=O)(=O)c3cccs3)cc2C(=O)N([C@@H](C)CO)C[C@H]1C returned rRNA inh HTS 0, FGF22 binding active, rRNA inh HTS OD600 -1 and rRNA inh HTS RFP -0.3.
C[C@H](NC(=O)C[C@H]1CC[C@@H](NC(=O)Cc2ccccn2)[C@@H](CO)O1)c1ccccc1 was read as rRNA inh HTS 2, FGF22 binding inactive, rRNA inh HTS OD600 1 and rRNA inh HTS RFP -1.0.
C[C@@H]1CCCCO[C@H](CN(C)CC2CC2)[C@@H](C)CN([C@H](C)CO)C(=O)c2cc(NC(=O)Nc3ccccc3)ccc2O1 was read as rRNA inh HTS 0, FGF22 binding inactive, rRNA inh HTS OD600 -3 and rRNA inh HTS RFP -2.4.
C[C@@H]1CN([C@H](C)CO)C(=O)c2cc(-c3ccncc3)cnc2O[C@H]1CN(C)C(=O)C1CCOCC1 was read as rRNA inh HTS 0, FGF22 binding inactive, rRNA inh HTS OD600 2 and rRNA inh HTS RFP -1.9.
`O=C(CN1CCOCC1)NCC[C@@H]1CC[C@H](NC(=O)Nc2ccc(F)cc2)[C@H](CO)O1` gave rRNA inh HTS 4, FGF22 binding inactive, rRNA inh HTS OD600 3 and rRNA inh HTS RFP -0.4.
C[C@@H]1CN([C@@H](C)CO)C(=O)c2cc(NS(=O)(=O)c3cn(C)cn3)ccc2O[C@H]1CN(C)S(=O)(=O)c1cccs1 was read as rRNA inh HTS 3, FGF22 binding inactive, rRNA inh HTS OD600 10 and rRNA inh HTS RFP -0.8.

Only part of the results is shown; rates above refer to the full screens.
